PABP polyA inh: PABP poly(A) RNA binding inhibitors, primary screen, biochemical, fluorescence polarization, uHTS; Polyadenylate-binding protein 1 (Homo sapiens), P11940; inhibition, % at 35 µM; 1% of 290,000 active;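 active means 50% or more with normal probe brightness, or confirmed in later tests; inconclusive means above 50% with abnormal brightness, or retests that disagree; inactive means below 50% or failed in later tests; about a fifth of its hits are not listed in these tables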;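 further: calls also rest on retests at 20 µM and on dose response follow-up; controls were probe without protein and protein plus probe with vehicle; some compounds called inactive have numbers as strong as hits; many hits fall short of the cut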
Target sequence (P11940 whole entry, looked up): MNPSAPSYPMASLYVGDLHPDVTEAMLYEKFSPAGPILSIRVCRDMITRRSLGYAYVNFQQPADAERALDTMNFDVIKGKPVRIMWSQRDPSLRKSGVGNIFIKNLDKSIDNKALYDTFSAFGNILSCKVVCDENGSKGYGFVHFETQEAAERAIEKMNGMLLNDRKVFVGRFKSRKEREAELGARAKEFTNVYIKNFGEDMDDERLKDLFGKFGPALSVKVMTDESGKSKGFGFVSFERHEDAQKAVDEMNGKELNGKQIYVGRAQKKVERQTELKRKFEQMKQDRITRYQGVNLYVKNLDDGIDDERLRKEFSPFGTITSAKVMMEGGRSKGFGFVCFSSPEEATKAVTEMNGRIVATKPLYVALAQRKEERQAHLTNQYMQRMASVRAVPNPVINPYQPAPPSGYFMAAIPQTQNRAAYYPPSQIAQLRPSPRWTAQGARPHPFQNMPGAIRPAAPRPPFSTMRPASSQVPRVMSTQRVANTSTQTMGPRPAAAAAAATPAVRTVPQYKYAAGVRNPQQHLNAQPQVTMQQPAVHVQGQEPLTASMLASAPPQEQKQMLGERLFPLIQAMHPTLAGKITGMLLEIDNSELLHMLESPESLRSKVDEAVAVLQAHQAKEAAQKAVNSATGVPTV
MT1-MMP act inh: blockers of MT1-MMP proenzyme processing, primary screen, HT1080 RFP-PRO-GFP cells, GFP/RFP fluorescence | Matrix metalloproteinase-14 (Homo sapiens), P50281 | GFP/RFP ratio fluorescence, overnight; percent of plate control window, DMSO zero | GFP/RFP ratio change, % at 20 µM | 0.061% of 360,000 active;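 active means GFP/RFP ratio change of at least 30% with cell ATP level not reduced by more than half and red fluorescence within 50% of control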; further: strong numbers were not always called active
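Assay system: HT1080 cells carrying an RFP-PRO-GFP reporter | Dosing: Single dose of 20 µM compound, 1% DMSO final | Incubation: Cells overnight before dosing, compound overnight, 37 °C, 5% CO2 | Evaluation: GFP/RFP fluorescence ratio | Control set: DMSO and RFP-L50D-GFP cell wells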
eIF4H FP inh: human eIF4H binding inhibitors, primary screen, translation initiation inhibitor project, biochemical, uHTS, fluorescence polarization. Eukaryotic translation initiation factor 4H (Homo sapiens), Q15056. eIF4H fluorescence polarization binding assay. inhibition, % at 35 µM. 0.94% of 290,000 active;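 active means 50% or more with normal probe brightness, or confirmed in later tests; inconclusive means above 50% with abnormal brightness, or retests that disagree; inactive means below 50% or failed in later tests; about a fifth of its hits are not listed in these tables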;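 further: calls also rest on retests at 20 µM and on dose response follow-up; 0% = protein and probe with vehicle and 100% = probe without protein; strong numbers were not always called active; many hits fall short of the cut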
Yeast UUG start: modulators of yeast start codon fidelity, primary screen, whole organism, S. cerevisiae, single point, plate reader; activity score, % at 18.7 µM; S. cerevisiae UUG-firefly luciferase reporter, luminescence/redox ratio; 0.13% of 350,000 active;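 active means replicate mean at a twofold rise or more, about +100% in these data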;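 further: firefly luciferase made from a UUG start codon reports start codon fidelity; reporter light over untreated wells divided by growth signal over untreated wells; some hits fall short of that in this replicate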
CSC inhib: cancer stem cell viability inhibitors, primary screen, luminescence. cancer stem cell-like cells viability. inhibition, % at 7.5 µM. 1.1% of 300,000 active;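 active means mean at 75% or more and at least half the replicates too; inconclusive means mean and replicates disagree; tested in HMLE shEcad cells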;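 further: 0% = median of negative and 100% = median of positive control wells; the first replicate is given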
Rce1 inhib: yeast Rce1p protease inhibitors, primary screen, biochemical, fluorescence, cell-free homogeneous; yeast membranes, quenched prenylated peptide cleavage fluorescence; calls only; 0.27% of 290,000 active;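 active means fall in fluorescence gain of 50% or more versus controls, with final raw signal at or below 3038400; inconclusive means same 50% fall but final raw signal above 3038400; inactive means fall in fluorescence gain under 50%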;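 further: plate controls were neutral control wells for no effect and wells lacking membranes for full effect; tested at 10 µM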
Target sequence (Q03530 whole entry, looked up): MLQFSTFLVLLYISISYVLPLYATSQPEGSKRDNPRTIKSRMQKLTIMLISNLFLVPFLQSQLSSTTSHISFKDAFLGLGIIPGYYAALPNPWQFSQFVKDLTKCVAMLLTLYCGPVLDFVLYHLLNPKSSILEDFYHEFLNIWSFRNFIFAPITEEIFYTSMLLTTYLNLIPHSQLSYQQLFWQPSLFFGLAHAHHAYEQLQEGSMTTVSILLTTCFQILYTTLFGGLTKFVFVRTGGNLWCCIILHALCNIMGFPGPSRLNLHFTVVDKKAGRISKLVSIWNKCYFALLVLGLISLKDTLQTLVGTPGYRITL
HIV Env fusion: inhibitors of HIV-1 Env-driven cell-cell fusion, primary screen, HeLa-JRFL effector, CEM21 target cells, luciferase. inhibition, % at 12.3 µM. 1.1% of 360,000 active. AID 651610, 2012;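 active means mean replicate inhibition score of at least 50 and every replicate individually at or above 50; inconclusive means only one of the two criteria met; inactive means mean below 50 and not all replicates reaching 50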;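 further: 0% = plate neutral controls and 100% = maraviroc near 300 nM; one replicate is shown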
eIF4H FP inh retest: further read-out of eIF4H FP inh, marked with its call; inhibition, %; compound at 20 µM; confirmation average;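 mean of two retest wells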
PABP polyA inh retest: second read-out of PABP polyA inh, no call of its own (marks repeat the call); inhibition, %; compound at 20 µM; confirmation repeats;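 mean of two retest wells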
MT1-MMP act inh RFP: second read-out of MT1-MMP act inh, no call of its own (marks repeat the call); RFP signal change, %; measured here: RFP expression control read;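 0 = vehicle wells; hits needed this value within 50% of zero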
* = called active by the depositor; i = inactive; ? = inconclusive; / = no result given. This is a subset; count on the stated rates, not on these rows.

SMILES | PABP polyA inh | MT1-MMP act inh | MT1-MMP act inh RFP | eIF4H FP inh | Yeast UUG start | CSC inhib | Rce1 inhib | HIV Env fusion | others
COc1ccc(S(=O)(=O)N2CCOCC2)cc1NC(=O)CSc1n[nH]c(=O)n1C1CC1 | 0 | -1 | 4 | 20 | 25 | -9 | i | -7
Cc1ccc(S(=O)(=O)CCC(=O)OC(C)C(=O)c2c(C)[nH]c3ccccc23)cc1 (centres undefined) | -3 | 2 | 3 | -7 | / | -12 | i | /
CC1CCC2(CC1)NC(=O)N(CC(=O)Nc1cccc(S(=O)(=O)N3CCOCC3)c1)C2=O (centres undefined) | -2 | 1 | 4 | -11 | -8 | / | i | -123
CC(C)CC(=O)Nc1c2c(nn1-c1cccc(Cl)c1)CS(=O)C2 (centres undefined) | -6 | -1 | 0 | -8 | -7 | 5 | i | 10
CC(NC(=O)COC(=O)C1CCCCC1)c1ccccc1 (centres undefined) | / | 0 | 3 | / | -12 | / | / | -28
COc1cccc(C(=O)Nc2cccc(S(=O)(=O)NC3=NCCC3)c2)c1 | / | 2 | -1 | / | -7 | -11 | / | /
C=C(C)c1cccc(C(C)(C)NC(=O)N2CCCC(C(N)=O)C2)c1 (centres undefined) | 2 | 17 | 7 | -5 | -8 | -19 | i | /
COc1cc2c(cc1OC)CN(c1ccc(C(N)=O)cc1[N+](=O)[O-])CC2 | 17 | 5 | -4 | 34 | / | -7 | i | -16
COCCNC(=S)N/N=C(\C)c1ccc2cc(OC)ccc2c1 | 5 | -1 | -4 | -3 | / | 2 | i | /
Cc1ccc(CNCCCSc2nc(C)cc(C)n2)cc1 | 11 | 0 | 5 | 2 | -1 | -3 | i | -27
COc1ccc(-c2c[n+]3c(n2-c2ccc(C)cc2)CCCCC3)cc1 | 0 | 15 | -27 | 3 | -4 | 16 | i | 11
O=C(O)c1ccc(C(S(=O)(=O)c2ccccc2)S(=O)(=O)c2ccccc2)cc1 | / | -4 | 0 | / | 1 | / | / | 0
Clc1ccccc1CSc1nnc(-c2ccco2)c(-c2ccco2)n1 | 83* | -1 | 0 | 97* | -25 | 41 | i | -1 | eIF4H FP inh retest=94*;PABP polyA inh retest=87*
CC(=O)CC(c1ccccc1)S(=O)(=O)c1ccc(C)cc1 (centres undefined) | -2 | -1 | 2 | -3 | -5 | 7 | i | 12
Cc1ccccc1C(=O)OCC(=O)NCc1ccco1 | / | 1 | 7 | / | -13 | -23 | / | -2
COc1ccc(OC)c(NC(=O)CCN2C(=O)c3ccccc3C2=O)c1 | 10 | 3 | 6 | 20 | -4 | -2 | i | 4
C#CCNc1nc(CC)nc2c1nnn2Cc1ccccc1F | -7 | -13 | -12 | 4 | -28 | -2 | i | -5
CN(C)C(=O)c1cc(S(=O)(=O)N(C)C)c(Cl)cc1N1CCCC1 | 1 | 9 | 5 | -1 | 2 | 1 | i | /
Cc1ccc(-n2ncc3c(SCC(=O)NNC(=O)c4ccco4)ncnc32)cc1 | -29 | -6 | 0 | -12 | / | 19 | i | -86
CCc1ccc2c(CN3CCN(S(=O)(=O)c4cccs4)CC3)cc(=O)oc2c1 | 6 | / | / | 25 | / | -1 | i | -1
CN(C)CCCNC(=O)c1ccccn1 | -1 | -6 | 5 | -2 | -9 | -17 | i | 1
CC1Cc2ccccc2N1S(=O)(=O)c1cccc(C(=O)NC2CC2)c1 (centres undefined) | 3 | -3 | -4 | -2 | -2 | / | i | /
CC(=O)N1C[C@H]2CON(C)[C@H]2C[C@H]1c1ccc(-c2ccccc2)cc1 | / | 2 | 1 | / | -8 | / | / | 23
COc1ccccc1N1C[C@@H]2C[C@@H](c3ccco3)N3CCC[C@@]23C1=O | -8 | -20 | -2 | 0 | / | -13 | i | -19

The final two entries of the section above open the next one.
SMILES | PABP polyA inh | MT1-MMP act inh | MT1-MMP act inh RFP | eIF4H FP inh | Yeast UUG start | CSC inhib | Rce1 inhib | HIV Env fusion | others
CC(=O)N1C[C@H]2CON(C)[C@H]2C[C@H]1c1ccc(-c2ccccc2)cc1 | / | 2 | 1 | / | -8 | / | / | 23
COc1ccccc1N1C[C@@H]2C[C@@H](c3ccco3)N3CCC[C@@]23C1=O | -8 | -20 | -2 | 0 | / | -13 | i | -19
CCSC1=C(C#N)C(c2cccc(OC)c2)CC(=O)N1 (centres undefined) | -6 | 1 | 2 | -2 | 1 | -7 | i | /
N#C/C(=C\c1ccc(O)c(O)c1)C(=O)N1CCCC1 | -9 | -1 | -2 | -2 | / | 10 | i | -15
CCOc1ccc(CNC(=S)N/N=C/c2ccc(OC)c(OC)c2)cc1 | 3 | 9 | 2 | 4 | / | -2 | i | -10
Cc1noc(/C=C/N(C)C)c1S(=O)(=O)N1CCCC(C(=O)N2CCCCC2)C1 (centres undefined) | -17 | -9 | 4 | -7 | -11 | 3 | i | 26
CCOC(=O)c1c(C)[nH]c(C(=O)CSc2ccc(Cl)cc2)c1C | -15 | 0 | -5 | 5 | -19 | -3 | i | -428
O=C(COC(=O)C1CC2C=CC1C2)Nc1ccccc1F (centres undefined) | 11 | -1 | 1 | -9 | -18 | 1 | i | 0
O=C(COC(=O)Cc1ccc(Cl)cc1)Nc1ccccc1-c1ccccc1 | -9 | 3 | 0 | -2 | -13 | -3 | i | 9
COc1ccc(NC(=O)C2CCCN(S(=O)(=O)c3cccnc3)C2)cc1OC (centres undefined) | 3 | -2 | -1 | -2 | / | -6 | i | -17
COc1ccc(N2C(=O)C(Cl)=C(N3CCCC(C)C3)C2=O)cc1 (centres undefined) | 2 | 6 | 5 | 0 | -3 | 16 | i | /
O=C(CSC1=NCCN1)Nc1ccccc1[N+](=O)[O-] | -14 | 4 | 0 | -4 | / | 5 | i | -5
CCNC(=S)N1C2CCC1CC(NC(=O)Nc1ccc(C(=O)OCC)cc1)C2 (centres undefined) | 2 | 3 | 1 | 10 | -3 | -11 | i | 17
Clc1cccc2c3c([nH]c12)CCNC3 | -6 | 0 | 5 | -14 | 8 | -11 | i | -8

Three entries already listed, ordered by number of heavy atoms, lowest first.
SMILES | PABP polyA inh | MT1-MMP act inh | MT1-MMP act inh RFP | eIF4H FP inh | Yeast UUG start | CSC inhib | Rce1 inhib | HIV Env fusion | others
CCSC1=C(C#N)C(c2cccc(OC)c2)CC(=O)N1 (centres undefined) | -6 | 1 | 2 | -2 | 1 | -7 | i | /
O=C(COC(=O)C1CC2C=CC1C2)Nc1ccccc1F (centres undefined) | 11 | -1 | 1 | -9 | -18 | 1 | i | 0
O=C(COC(=O)Cc1ccc(Cl)cc1)Nc1ccccc1-c1ccccc1 | -9 | 3 | 0 | -2 | -13 | -3 | i | 9

Next section
SMILES | PABP polyA inh | MT1-MMP act inh | MT1-MMP act inh RFP | eIF4H FP inh | Yeast UUG start | CSC inhib | Rce1 inhib | HIV Env fusion | others
COc1ccc(N(C(=O)c2ccco2)C(C(=O)NC2CCCC2)c2ccc(N(C)C)cc2)cc1 (centres undefined) | -14 | -5 | -8 | -8 | 16 | -9 | i | /
O=C(CCn1nnc2ccccc21)Nc1nnc(COc2ccc(F)cc2)s1 | -3 | -3 | 12 | -13 | -17 | -5 | i | -14
NS(=O)(=O)c1ccc(CCNC(=O)Cc2ccc(Cl)cc2)cc1 | 6 | -1 | -2 | 0 | -16 | 18 | i | 4
CC(C)C[C@H](NC(=O)N1CC(=O)Nc2ccccc21)C(=O)N1CCC[C@H]1C(=O)O | 8 | -1 | 1 | -9 | -14 | -11 | / | /
COc1ccc(-n2nnnc2SCC(=O)Nc2ccc3c(c2)OCCO3)cc1OC | 1 | 7 | -5 | -1 | -3 | -2 | i | /
CN(C)S(=O)(=O)c1ccc(C(=O)OCC(=O)Nc2sc3c(c2C#N)CCCCC3)cc1 | -6 | -1 | 1 | -3 | / | -14 | i | -11
O=C(CCCCCn1c(=S)[nH]c2ccc(N3CCOCC3)cc2c1=O)NCc1cccc(Cl)c1 | 0 | 5 | -1 | 4 | / | 40 | i | 17
O=C(CCCN1C(=O)/C(=C\c2ccccc2)SC1=S)Nc1ccc(O)cc1C(=O)O | 17 | 4 | 4 | 7 | -7 | 17 | i | -16
O=C(CSc1nc2sc3c(c2c(=O)n1-c1ccccc1)CCCC3)N/N=C/c1ccccc1C(=O)O | 3 | 3 | -4 | 10 | -30 | -12 | i | /
CCOc1ccccc1N(CC(=O)NCCSc1ccccn1)S(=O)(=O)c1ccccc1 | -2 | 0 | 1 | -5 | 4 | 0 | / | 27
O=C(CCSc1ccccc1)NCCSCc1ccco1 | 12 | -2 | 4 | 3 | -16 | -14 | i | -15
N#CC1(C#N)C2=C(CCCC2)NC(c2ccccc2)C1(C#N)C#N (centres undefined) | ? | / | / | ? | / | 3 | i | /
CCOC(=O)c1ccc(NC(=S)N(CCN(C)C)C(C)c2ccncc2)cc1 (centres undefined) | 6 | -3 | 4 | -4 | -49 | -14 | i | 27
CCc1nnc(NS(=O)(=O)c2ccc(NC(=O)/C=C/c3ccc(F)cc3)cc2)s1 | -7 | 5 | 7 | 1 | -20 | -16 | / | 11
C/C(CC(=O)NC12CC3CC(CC(C3)C1)C2)=N\NC(=O)c1ccc(C)cc1 | -5 | 2 | 5 | 1 | / | -14 | i | -4
NC(=O)COC(=O)c1ccc(-c2ccc(O)cc2)cc1 | -11 | -1 | -1 | 2 | -19 | 0 | i | -36
CCOC(=O)c1ccccc1NC(=O)C1CC(=O)N(C(C)(C)C)C1 (centres undefined) | 9 | -1 | -4 | -4 | -14 | -19 | i | 19
N#CC1=C(N)Oc2n[nH]c(-c3ccccc3)c2C1c1cccc(OC(=O)N2CCOCC2)c1 (centres undefined) | 5 | 4 | 3 | -4 | -24 | -12 | i | -72
CC(=O)c1cccc(NC(=O)c2c(C)nn(-c3ccccc3)c2Cl)c1 | 2 | -2 | -5 | 8 | / | 0 | i | -20
O=C(c1ccccc1)N1N=C(c2ccccc2)CC1(O)C(F)(F)F (centres undefined) | 13 | 4 | -8 | -1 | / | -14 | i | 12
CC(C)(C)c1cnnn1-c1ccc(/C=N/Nc2ccc([N+](=O)[O-])cc2)cc1 | -1 | -1 | -8 | -7 | -11 | 54 | i | -20
COc1ccc(-c2nc3ccccc3n2OCC(=O)O)cc1 | 9 | 1 | 4 | -7 | / | -3 | i | -18
COc1ccc2nc(/C(C#N)=C\c3ccc(C(=O)O)cc3)[nH]c2c1 | -1 | -21 | 0 | 35 | / | -7 | i | 11
CS(=O)(=O)NCC(c1cccnc1)N1CCN(c2ccc(F)cc2)CC1 (centres undefined) | 16 | 1 | 4 | -2 | -15 | / | i | /
CCOc1ccc(-c2nc3n(c(=O)c2C#N)CCS3)cc1 | -3 | 2 | 1 | -11 | / | 1 | i | 8

Molecules from the list above that contain a tert-butyl group (two):
SMILES | PABP polyA inh | MT1-MMP act inh | MT1-MMP act inh RFP | eIF4H FP inh | Yeast UUG start | CSC inhib | Rce1 inhib | HIV Env fusion | others
CCOC(=O)c1ccccc1NC(=O)C1CC(=O)N(C(C)(C)C)C1 (centres undefined) | 9 | -1 | -4 | -4 | -14 | -19 | i | 19
CC(C)(C)c1cnnn1-c1ccc(/C=N/Nc2ccc([N+](=O)[O-])cc2)cc1 | -1 | -1 | -8 | -7 | -11 | 54 | i | -20
